High-throughput results as filed in PubChem.
HPGD inh = qHTS Assay for Inhibitors of HPGD (15-Hydroxyprostaglandin Dehydrogenase). 4.3% of 150,000 active. AID 894, 2007. purified HPGD, NADH fluorescence kinetic, PGE2 substrate. Potency, µM, for the others: at the top dose activity change, negative = inhibition, most hits filed as inhibitors; active = well fitted inhibition curve with a large enough effect (not every such curve was filed as active); inconclusive = small, poorly fitted or top-dose-only effect, or another doubt; inactive = no such curve, though single readings can be large or run the other way;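 also: top concentration of the series not given in the record; plate controls included wells without enzyme; inactives centre near -10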
Target sequence (P15428 whole entry, looked up): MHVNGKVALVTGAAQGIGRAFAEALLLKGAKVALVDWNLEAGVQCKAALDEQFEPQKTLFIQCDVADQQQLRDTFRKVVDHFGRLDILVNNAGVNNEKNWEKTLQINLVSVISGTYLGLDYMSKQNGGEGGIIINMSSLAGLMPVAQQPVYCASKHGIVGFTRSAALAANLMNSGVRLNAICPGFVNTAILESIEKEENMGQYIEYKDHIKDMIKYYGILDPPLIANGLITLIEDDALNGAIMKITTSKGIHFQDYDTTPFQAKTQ
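NADH formation kinetics: reaction with 30 uM PGE2 and 1 mM NAD+ (final), 20 nM enzyme, Tris-HCl pH 8 with Tween 20, after 15 min compound preincubation at room temperature. Fluorescence change, last versus first of five reads.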
* hit, by the source's call; ? = inconclusive. % is scaled to controls: 0 for no effect and ±100 for the full control effect; potency is read from the fitted curve at half-maximal effect. Only part of the results is shown, so the mix of outcomes need not match the whole.

CC1CN(C2CCCCC2)c2nc3c(c(=O)n(C)c(=O)n3C)n2C1 (stereo not given)
  HPGD inh: -8%

Cc1cc(N2C(=O)C3C4C=CC(C4)C3C2=O)ccc1Br (stereo not given)
  HPGD inh: -11%

Cc1ccc(S(=O)(=O)N2CCN(CC(=O)N/N=C/c3ccc(C)o3)CC2)cc1
  HPGD inh: -7%

O=C(Nc1nc2ccccc2[nH]1)C12CC3CC(CC(C3)C1)C2
  HPGD inh: -3%

O=C(CN(CCc1ccccc1)C(=O)CNS(=O)(=O)c1ccccc1)NCC1CCCO1 (stereo not given)
  HPGD inh: -10%

Cc1ccc(C(C)NC(=O)Cn2nc(C)c([N+](=O)[O-])c2C)cc1 (stereo not given)
  HPGD inh: -6%

CCN(CC)Cc1c(-c2ccccc2)[nH]c2ccc(C)cc2c1=O
  HPGD inh: ?

Cc1ccc(N2CC(C(=O)N/N=C/c3cccc([N+](=O)[O-])c3)CC2=O)cc1 (stereo not given)
  HPGD inh: -18%

c1ccc(CCN2CCN(c3ncnc4c3cnn4-c3ccccc3)CC2)cc1
  HPGD inh: -8%

Cc1cc(C(=O)N/N=C\c2ccc(COc3ccc([N+](=O)[O-])cc3)o2)ccc1[N+](=O)[O-]
  HPGD inh: -7%

CCCCn1c(NCc2ccc3c(c2)OCO3)nc2ccccc21
  HPGD inh: -7%

Cc1cc(C)n2ncc(C(=O)NCc3ccccc3)c2n1
  HPGD inh: ?

CC(NC(=O)c1cccnc1)C(c1ccccc1)N1CCN(C)CC1 (stereo not given)
  HPGD inh: 0%

Cc1cc(Br)ccc1SCC(=O)OCC(=O)Nc1ccccc1C#N
  HPGD inh: -12%

O=C(COC(=O)COc1ccc(Br)cc1)Nc1cccnc1Cl
  HPGD inh: -12%

Cc1nnc(SCCn2c(N3CCN(Cc4ccccc4)CC3)nc3c2c(=O)[nH]c(=O)n3C)s1
  HPGD inh: -7%

CCCCN(C)CCCNC(=O)c1cccc(N2CCCC2=O)c1
  HPGD inh: -7%

CCNS(=O)(=O)c1c(C)cc(N2CCCC2=O)cc1C
  HPGD inh: 3%

OC[C@@H]1[C@@H](c2ccc(F)cc2)C(c2ccccc2)=NN1c1ccccc1
  HPGD inh: ?

O=C(COC(=O)C1CCCN1C(=O)C12CC3CC(CC(C3)C1)C2)c1ccc(Br)cc1 (stereo not given)
  HPGD inh: -10%

CCOC(=O)CNC(=O)CSc1nnc(COc2ccc(Cl)cc2)n1CC
  HPGD inh: -12%

COc1cc(C2C=C(C34CC5CC(CC(C5)C3)C4)NC(=S)N2)cc(OC)c1OC (stereo not given)
  HPGD inh: -2%

CC1(C)NC(=O)N(CC(O)COc2ccccc2-c2ccccc2)C1=O (stereo not given)
  HPGD inh: -5%

COc1cc(-c2nc(S(=O)(=O)c3ccc(C)cc3)c(N3CCOCC3)o2)cc(OC)c1OC
  HPGD inh: -12%

CC1(C)Cc2c(sc3c4nnnn4c4nnnn4c23)CO1
  HPGD inh: -15%

Cc1cc(C)cc(-n2c(N)c(C(=O)Nc3c(C)n(C)n(-c4ccccc4)c3=O)c3nc4ccccc4nc32)c1
  HPGD inh: ?

Cc1ccccc1NC(=S)N1CCOCC1
  HPGD inh: -1%

O=C(Nc1cc(C(F)(F)F)ccc1N1CCCCC1)c1ccco1
  HPGD inh: ?

O=C1C[C@H](c2ccccc2)Oc2cc(O)cc(O)c21
  HPGD inh: -11%

CCC(C)n1c(=S)[nH]c2c(sc3ccc([N+](=O)[O-])cc32)c1=O (stereo not given)
  HPGD inh: -4%

CC(C)C(=O)Nc1sc2c(c1-c1nc3ccccc3[nH]1)CCCC2
  HPGD inh: ?

CSc1nc(-c2ccc(C)cc2)nc(C(Cl)Cl)n1
  HPGD inh: 2%

Cc1ccc(-c2cc(C(=O)Nc3nn[nH]n3)c3ccccc3n2)cc1
  HPGD inh: ?

Cc1cc(C)nc(N2CCN(c3ncnc4c3oc3ccccc34)CC2)n1
  HPGD inh: -13%

C[C@H](NC[C@H](O)CP(=O)(O)Cc1ccccc1)c1ccc(Cl)c(Cl)c1
  HPGD inh: -3%

COc1ccc2[nH]cc(CCNc3ncncc3-c3ccc(N(C)C)cc3)c2c1
  HPGD inh: ?

CCNC(=S)NNC(=O)c1ccccc1OC(F)F
  HPGD inh: -9%

CSc1nc2ccc3nc(NC(=O)c4ccc(C)cc4)sc3c2s1
  HPGD inh: ?

COc1cc(NC(=O)COC(=O)c2cc(S(=O)(=O)N3CCCCC3)ccc2Cl)c(C)cc1[N+](=O)[O-]
  HPGD inh: -14%

Cc1cc(C(=O)Cn2nnc3ccccc3c2=O)c(C)n1Cc1cccs1
  HPGD inh: -9%

Cc1cccc(-n2ccnc2SCC(=O)Nc2nccs2)c1C
  HPGD inh: -6%

CCCC1CC(C)(c2csc(Nc3ccc(OCC)cc3)n2)OC1=O (stereo not given)
  HPGD inh: -13%

CCOc1ccccc1C(=O)N1CCN=C1SCc1cccnc1
  HPGD inh: -19%

CC(=O)Oc1ccc2c(c1)Oc1cc(OC(C)=O)ccc1C21OC(=O)c2ccccc21
  HPGD inh: -19%

COc1cc(OC)cc(-c2nc3ccccc3c(=O)n2OC(=O)c2ccccc2C)c1
  HPGD inh: -9%

CCc1cc(=O)oc2cc(OCC(=O)N3CCCc4ccccc43)ccc12
  HPGD inh: ?

O=C(NCC1COc2ccccc2O1)c1ccccc1 (stereo not given)
  HPGD inh: ?

O=C(NCc1ccc2c(c1)OCO2)c1ccc(COc2cc(Cl)ccc2Cl)o1
  HPGD inh: ?

CC1CCCCN1S(=O)(=O)c1ccc(S(=O)(=O)N(Cc2ccccc2)Cc2ccco2)cc1 (stereo not given)
  HPGD inh: -11%

CC(C)(C)NC(=O)NC(=O)COC(=O)c1cccc(F)c1
  HPGD inh: -8%

O=C(NCCC1=CCCCC1)C(=O)NCC(c1ccco1)N1CCN(c2ccccc2)CC1 (stereo not given)
  HPGD inh: -5%

Cc1ccc(C)c(SCC(=O)OCC(=O)c2ccco2)c1
  HPGD inh: 18µM*

Nc1ncnc2nc(-c3ccc(C[P+](c4ccccc4)(c4ccccc4)c4ccccc4)cc3)[nH]c12
  HPGD inh: -25%

CCOC(=O)c1sc(NC(=O)c2cc3n(n2)C(C(F)(F)F)CC(c2ccccc2)N3)c(C(=O)OCC)c1C (stereo not given)
  HPGD inh: ?

O=C(c1cccc(F)c1)N1CCC2(CCCN(c3ccccn3)C2)CC1
  HPGD inh: -18%

COc1ccc(CNc2oc(C)nc2C#N)cc1
  HPGD inh: -2%

CC(CC(=O)Nc1nc2ccccc2[nH]1)c1ccccc1 (stereo not given)
  HPGD inh: -7%

CCCc1ccc(-c2ccc(/C=C/C(=O)O)cc2)nc1
  HPGD inh: ?

CCn1c(SCC(=O)NCc2ccc3c(c2)OCO3)nnc1-c1c[nH]c2ccccc12
  HPGD inh: -5%

CCN(CC)S(=O)(=O)c1ccc(C)c(NC(=O)CSc2nc3ccc(C)cc3[nH]2)c1
  HPGD inh: -16%

The final four entries of the part above open the next one:
CC(CC(=O)Nc1nc2ccccc2[nH]1)c1ccccc1 (stereo not given)
  HPGD inh: -7%

CCCc1ccc(-c2ccc(/C=C/C(=O)O)cc2)nc1
  HPGD inh: ?

CCn1c(SCC(=O)NCc2ccc3c(c2)OCO3)nnc1-c1c[nH]c2ccccc12
  HPGD inh: -5%

CCN(CC)S(=O)(=O)c1ccc(C)c(NC(=O)CSc2nc3ccc(C)cc3[nH]2)c1
  HPGD inh: -16%

COc1cccc(NC(=O)Nc2ccc3c(c2)nnn3C)c1
  HPGD inh: -8%

Cn1c(=N)n(CC(O)c2ccco2)c2ccccc21 (stereo not given)
  HPGD inh: -5%

COCCCN1C(=O)C(O)=C(C(C)=O)C1c1ccccn1 (stereo not given)
  HPGD inh: ?

c1ccc(CCSc2ncnc3nc[nH]c23)cc1
  HPGD inh: -3%

CC(=O)N1CCc2cc(S(=O)(=O)CCC(=O)N3CCc4ccccc4C3)ccc21
  HPGD inh: -7%

N/C(=N\OC(=O)c1ccco1)c1ccccc1
  HPGD inh: -29%

N#Cc1cccc(-c2nnc(SCc3ccccc3C#N)o2)c1
  HPGD inh: ?

CCc1c(C(=O)NC2CCCC2)csc1C
  HPGD inh: 14µM*

COc1ccc2sc(N3C(=O)C4CC=C(C)CC4C3=O)nc2c1 (stereo not given)
  HPGD inh: -13%

CC(OC(=O)c1cccs1)C(=O)NCc1ccco1 (stereo not given)
  HPGD inh: -25%

Cc1cccc(C)c1OCC(O)CNS(=O)(=O)c1ccccc1C(=O)N1CCOCC1 (stereo not given)
  HPGD inh: -7%

O=C1CCC(=O)N1c1nc2nc(-c3ccccc3)cc(=O)n2[nH]1
  HPGD inh: -3%

O=C(NC(=S)NNS(=O)(=O)c1ccccc1)c1ccccc1[N+](=O)[O-]
  HPGD inh: 20µM*

Cc1ccc(N2CCN(c3ccc(C)cc3)C2c2ccccn2)cc1
  HPGD inh: -14%

COC(=O)CN1C2(C#N)CCCCC2CC2CCCCC21C#N (stereo not given)
  HPGD inh: -8%

O=C(Nc1nc(COc2ccccc2)cs1)C1CCC1
  HPGD inh: -3%

c1cc(C2OCCN2CC2COC3(CCCC3)O2)ccn1 (stereo not given)
  HPGD inh: -9%

COc1ccc(C(CC(=O)O)NC(C)=O)cc1OC (stereo not given)
  HPGD inh: -6%

CC1=CC(C)(C)N(S(=O)(=O)c2ccc(C)cc2)c2ccccc21
  HPGD inh: -5%

Cc1nnc(NC(=O)CSc2cn(Cc3ccccc3)c3ccccc23)s1
  HPGD inh: -1%

COC(=O)CC1=C(C(=O)OC)C(c2ccncc2)C(C#N)=C(N)O1 (stereo not given)
  HPGD inh: -10%

Cn1c(=O)c(C(=O)CSc2nnc(Nc3ccccc3)s2)c(N)n(Cc2ccccc2)c1=O
  HPGD inh: 5%

COCC(C)NC(=O)C1CC(c2cccc(Br)c2)=NO1 (stereo not given)
  HPGD inh: -6%

C=CCOc1ccc(Br)cc1/C=N/O
  HPGD inh: 4.5µM*

O=C(c1c[nH]c2ccccc12)C(O)C(c1ccccc1)N1CCOCC1 (stereo not given)
  HPGD inh: -11%

CCOC(=O)c1[nH]c(C)c(C(=O)NC(C)(C)C)c1C
  HPGD inh: 0%

CC(C)NC(=O)c1cc(-c2cccs2)on1
  HPGD inh: -20%

CCOc1ccc2[nH]c(=O)c(CN(CCO)C(c3nnnn3C3CCCCC3)C(C)C)cc2c1 (stereo not given)
  HPGD inh: -17%

N#Cc1ccc2ccn(CC(=O)NCc3ccccc3)c2c1
  HPGD inh: ?

Cc1nc2c(C)cccn2c1/C(O)=C1\C(=O)C(=O)N(CCN2CCOCC2)C1c1ccncc1 (stereo not given)
  HPGD inh: -5%

CC1=C(C(=O)Nc2ccccc2)C(c2ccco2)C(C#N)=C(SCC(N)=O)N1 (stereo not given)
  HPGD inh: ?

CCOC(=O)N1CCc2c(sc(NC(=O)c3ccc(S(=O)(=O)N4CCCC4)cc3)c2C#N)C1
  HPGD inh: -21%

CC(C)(C)C(=O)N1CCc2cc(-c3csc(N)n3)ccc21
  HPGD inh: -23%

CC(NC(=O)c1cccnc1)C(c1cccs1)N1CCN(C)CC1 (stereo not given)
  HPGD inh: -10%

Cc1occc1C(=O)NCc1ccccc1F
  HPGD inh: ?

CCS(=O)(=O)Nc1cc(C(=O)OC)ccc1C(=O)OC
  HPGD inh: ?

Cc1cc(C)c2cc(C#N)c(SCC(=O)NCC3CCCO3)nc2c1 (stereo not given)
  HPGD inh: -7%

NC(=O)CSc1nnc(Cc2csc(Nc3ccc(F)cc3)n2)n1Cc1ccccc1
  HPGD inh: 3%

CCn1c(SCC(=O)Nc2ccc(C(C)=O)cc2)nc2nc3c(cc2c1=O)CCCC3
  HPGD inh: -14%

O=C(Nc1ccc(Cl)cc1)Nc1cc([N+](=O)[O-])ccc1F
  HPGD inh: -1%

O=C(NCC1CCCO1)c1ccc(COc2ccc(Br)cc2)cc1 (stereo not given)
  HPGD inh: 7.1µM*

O=C(CC1CCCCC1)NCc1ccccn1
  HPGD inh: ?

CCOc1ccccc1NC1=C(Cl)C(=O)N(c2ccc(OC)cc2)C1=O
  HPGD inh: -18%

COCc1cc(C)nc(OCC(=O)N/N=C/c2ccc(OC)c(O)c2)c1C#N
  HPGD inh: -10%

Cc1cc(C)c2c(=O)c3c(oc2c1)C(=O)N(CCO)C3c1cccc(O)c1 (stereo not given)
  HPGD inh: -20%

Nc1ccccc1Nc1ccc([N+](=O)[O-])cc1[N+](=O)[O-]
  HPGD inh: -16%

COCCOC(=O)c1[nH]c2c(c1C)C(=O)CC(c1cc(OC)ccc1OC)C2 (stereo not given)
  HPGD inh: -5%

Cc1cc(C(=O)Nc2c(C)n(C)n(-c3ccccc3)c2=O)on1
  HPGD inh: -9%

O=C(O)CNC(=O)[C@H]1NC(C(F)(F)F)(C(F)(F)F)OC1(C(F)(F)F)C(F)(F)F
  HPGD inh: 0%

Cn1c(CC(=O)Nc2ccc(Cl)c(Cl)c2)nnc1SCC(=O)N1CCN(c2ccccc2)CC1
  HPGD inh: 0%

COc1cc(/C=N\NC(=O)c2sc(N)nc2C)cc(OC)c1OC
  HPGD inh: -21%

COc1ccc(NS(=O)(=O)c2ccc(Oc3ncccn3)cc2)cc1
  HPGD inh: -4%

Cc1ccc(-c2nc(CS(=O)(=O)CC(=O)N3CC(C)CC(C)C3)c(C)o2)cc1 (stereo not given)
  HPGD inh: ?

CC(=O)N1CCCc2cc(S(=O)(=O)N3CCc4ccccc4C3)ccc21
  HPGD inh: -12%

CS(=O)(=O)N1CCN(c2ccccc2F)CC1
  HPGD inh: 1%

Cc1cc(C(=O)N/N=C2\CCCc3ccccc32)c(C)o1
  HPGD inh: -8%

Cc1ccc(C(=O)COC(=O)c2ccc(-c3cnc4ccccc4n3)cc2)cc1C
  HPGD inh: -16%

N#CC(C#N)=Cc1ccc(OC(=O)c2ccccn2)cc1
  HPGD inh: -9%

Rewritten with tabs: entries from further up
Compound	HPGD inh
COc1ccc(NS(=O)(=O)c2ccc(Oc3ncccn3)cc2)cc1	-4%
Cc1ccc(-c2nc(CS(=O)(=O)CC(=O)N3CC(C)CC(C)C3)c(C)o2)cc1 (stereo not given)	?
